# PABP polyA inh: blocks human PABP binding to poly(A) RNA. P11940. fluorescence polarization. inhibition, % at 35 µM. actives 1% (n = 290,000);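 active means 50% or more with normal probe brightness, or confirmed in later tests; about a fifth of its hits are not listed in these tables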;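 further: calls also rest on retests at 20 µM and on dose response follow-up; controls were probe without protein and protein plus probe with vehicle; some compounds called inactive have numbers as strong as hits; many hits fall short of the cut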
# MT1-MMP act inh: blocks activation of human MT1-MMP. P50281. HT1080 RFP-PRO-GFP cells, GFP/RFP ratio fluorescence, overnight; percent of plate control window, DMSO zero. GFP/RFP ratio change, % at 20 µM. actives 0.061% (n = 360,000);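 active means GFP/RFP ratio change of at least 30% with cell ATP level not reduced by more than half and red fluorescence within 50% of control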; further: strong numbers were not always called active
#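 Assay system: HT1080 cells carrying an RFP-PRO-GFP reporter | Dosing: Single dose of 20 µM compound, 1% DMSO final | Incubation: Cells overnight before dosing, compound overnight, 37 °C, 5% CO2 | Evaluation: GFP/RFP fluorescence ratio | Control set: DMSO and RFP-L50D-GFP cell wells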
# Env fusion inh: HIV envelope-mediated fusion inhibition; HeLa-JRFL Env/CEM21 cell fusion, luciferase; inhibition, % at 12.3 µM; actives 1.1% (n = 360,000);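 active means mean replicate inhibition score of at least 50 and every replicate individually at or above 50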;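 further: 0% = plate neutral controls and 100% = maraviroc near 300 nM; one replicate is shown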
# Yeast UUG start: alters start codon recognition fidelity in yeast | S. cerevisiae UUG-firefly luciferase reporter, luminescence/redox ratio | actives 0.13% (n = 350,000) | activity score, % at 18.7 µM | AID 602363;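 active means replicate mean at a twofold rise or more, about +100% in these data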;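 further: firefly luciferase made from a UUG start codon reports start codon fidelity; reporter light over untreated wells divided by growth signal over untreated wells; some hits fall short of that in this replicate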
# Rce1 inhib: yeast Ras-converting enzyme inhibition | Q03530 | yeast membranes, quenched prenylated peptide cleavage fluorescence | actives 0.27% (n = 290,000) | calls only;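 active means fall in fluorescence gain of 50% or more versus controls, with final raw signal at or below 3038400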;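 further: plate controls were neutral control wells for no effect and wells lacking membranes for full effect; tested at 10 µM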
# Target sequence (Q03530 whole entry, looked up): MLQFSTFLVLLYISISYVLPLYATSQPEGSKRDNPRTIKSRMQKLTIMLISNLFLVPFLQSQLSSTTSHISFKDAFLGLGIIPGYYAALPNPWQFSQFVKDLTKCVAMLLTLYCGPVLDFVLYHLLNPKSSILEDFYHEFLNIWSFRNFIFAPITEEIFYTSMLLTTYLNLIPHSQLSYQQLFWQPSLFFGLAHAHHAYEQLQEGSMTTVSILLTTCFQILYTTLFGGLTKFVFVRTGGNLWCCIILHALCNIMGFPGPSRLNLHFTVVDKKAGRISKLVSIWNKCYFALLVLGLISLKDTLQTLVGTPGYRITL
# CSC inhib: blocks cancer stem cells; AID 2717; actives 1.1% (n = 300,000); cancer stem cell-like cells viability, luminescence; inhibition, % at 7.5 µM;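 active means mean at 75% or more and at least half the replicates too; tested in HMLE shEcad cells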;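 further: 0% = median of negative and 100% = median of positive control wells; the first replicate is given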
# eIF4H inh: inhibitors of RNA binding by human eIF4H. Q15056. eIF4H fluorescence polarization binding assay. inhibition, % at 35 µM. actives 0.94% (n = 290,000);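 active means 50% or more with normal probe brightness, or confirmed in later tests; about a fifth of its hits are not listed in these tables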;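 further: calls also rest on retests at 20 µM and on dose response follow-up; 0% = protein and probe with vehicle and 100% = probe without protein; strong numbers were not always called active; many hits fall short of the cut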
# eIF4H inh retest: second read-out of eIF4H inh, no call of its own (marks repeat the call); inhibition, %; compound at 20 µM; confirmation average;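 mean of two retest wells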
# PABP polyA inh retest: further read-out of PABP polyA inh, marked with its call; inhibition, %; compound at 20 µM; confirmation repeats;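 mean of two retest wells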
# MT1-MMP act inh RFP: recorded beside MT1-MMP act inh, whose call it bears; RFP signal change, %; measured here: RFP expression control read;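 0 = vehicle wells; hits needed this value within 50% of zero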
# * hit, by the source's call; i = inactive; / = no result given; & = joins results of further samples; [ ] = another dose, or the depositor's remark.
SMILES,PABP polyA inh,MT1-MMP act inh,MT1-MMP act inh RFP,Env fusion inh,Yeast UUG start,Rce1 inhib,CSC inhib,eIF4H inh,others
Cc1cccc(C)c1NC(=O)CCN1C(=O)C2C3CCC(C3)C2C1=O (stereo unspecified),-3,-4,2,-6,-13,i,-6,-7,
COc1ccc(C2CC(c3ccccc3)=NN2c2ccccc2)c(C(=O)O)c1OC (stereo unspecified),-11,-1,-4,-7,43,i,-10,2,
CC(=O)N1c2ccc(S(=O)(=O)N(C)Cc3ccccc3)cc2CC1C (stereo unspecified),-2,-1,-9,30,-4,i,-9,0,
CC1CCCCC1NC(=O)Cn1cnc2sccc2c1=O (stereo unspecified),/,-4,0,-12,-9,/,/,/,
c1ccc(CSc2nnnn2-c2ccccc2)cc1,7,4,2,/,-11,i,/,-9,
COc1ccc(N2C(=O)CC(NC3CC3)C2=O)cc1 (stereo unspecified),0,0,3,/,12,i,-5,-3,
CCc1ccc(CN2CCCC(C(=O)N3CCCCC3)C2)cc1 (stereo unspecified),-5,4,0,-12,0,i,-24,4,
COc1ccc(OC)c(/C=C/C(=O)NCCc2nc3ccccc3[nH]2)c1,0,4,3,-47,-5,/,-6,-15,
CCc1ccc2c(CN(CC)Cc3nc4ccccc4c(=O)[nH]3)cc(=O)oc2c1,-10,-4,5,/,-5,i,-8,-17,
O=C(Nc1ccccc1N1CCCCC1)c1ccc2nccnc2c1,-6,-1,-2,/,-7,i,-18,-2,
CC(=O)c1cccc(OC(=O)c2ccc3c(=O)n4c(nc3c2)CCC4)c1,/,3,3,/,/,i,-11,/,
Cc1sc(NC(=O)CSc2nc(O)cc(=O)[nH]2)nc1-c1ccccc1,10,-1,1,-6,/,i,-13,-13,
Cc1ccc(CN2CCN(CC(=O)N/N=C/c3c[nH]c4ccccc34)CC2)cc1,-15,0,3,4,4,i,-1,3,
CCC(C)[C@H](NC(=O)OC(C)(C)C)C(=O)N/N=C/c1cccc2nccnc12 (stereo partly specified),1,7,3,/,-1,i,7,-5,
Cc1ccc(S(=O)(=O)n2cc(CO)c3ccccc32)cc1,/,-1,-3,-18,-6,/,/,/,
CNC[C@@H]1Oc2cc(Br)ccc2S(=O)(=O)N([C@@H](C)CO)C[C@@H]1C,/,10,6,-13&-3[16.7 µM],-5&7,/,/,/,
COc1ccc(CNC(=O)C(C)OC(=O)c2cccs2)cc1 (stereo unspecified),-8,-2,4,11,-7,i,-9,0,
COC(=O)c1ccc(COC(=O)CNC(=O)c2cccc(OC)c2)o1,/,2,1,/,-11,/,19,/,
COc1cc(NS(=O)(=O)c2ccc(NC(=S)Nc3ccccc3)cc2)nc(OC)n1,4,3,2,4,-14,i,7,6,
Cc1cc(C)cc(C(=O)NC(CC(N)=O)c2ccc(N3CCN(c4ccccc4)CC3)c([N+](=O)[O-])c2)c1 (stereo unspecified),-2,-3,-5,24,-12,i,9,-15,
CCOC(=O)c1cnn(-c2ccc(NS(=O)(=O)c3ccc(Cl)cc3)cc2)c1C(F)(F)F,-2,-1,-9,-1,/,i,17,-10,
O=C(COc1ccc(F)cc1)Nc1nnc(C2CC2)s1,/,2,2,-8,-16,i,-4,/,
Cc1ccc(-c2nn(-c3ccccc3)cc2/C=C/C(=O)Nc2cccc(S(N)(=O)=O)c2)cc1,-15,-2,-3,5,/,i,17,-6,
CC1(C)Cc2c(c(N3CCOCC3)nc3sc(-c4ccc(C(=O)O)o4)c(N)c23)CO1,12,-7,3,/,-4,i,2,16,
Cc1cc(NCCCN(C)C)n2nc(-c3cccs3)cc2n1,1,1,-2,/,-12,i,-4,6,
CCCc1cc(=O)[nH]c(SCC(=O)Nc2ncc(S(=O)(=O)c3ccc([N+](=O)[O-])cc3)s2)n1,3,-1,0,-12,-9,i,-9,-1,
S=C(NCc1ccco1)N1CCN(Cc2ccco2)CC1,12,2,6,17,-17,i,3,2,
CCc1nnc(NC(=O)CCN2C(=O)c3ccccc3C2=O)s1,3,3,3,-3,-14,i,-9,-7,
O=C1CCN(S(=O)(=O)c2ccccc2)CCN1CCOCc1ccc(Cl)cc1,7,5,1,-7,-17,i,-12,0,
CC(C(=O)N1CCc2ccccc21)N1CCN(S(=O)(=O)c2cccc(C(F)(F)F)c2)CC1 (stereo unspecified),/,1,-9,/,-1,/,-3,/,

# Sorted by formula weight (descending): part of the list above.
SMILES,PABP polyA inh,MT1-MMP act inh,MT1-MMP act inh RFP,Env fusion inh,Yeast UUG start,Rce1 inhib,CSC inhib,eIF4H inh,others
Cc1cc(C)cc(C(=O)NC(CC(N)=O)c2ccc(N3CCN(c4ccccc4)CC3)c([N+](=O)[O-])c2)c1 (stereo unspecified),-2,-3,-5,24,-12,i,9,-15,
CCCc1cc(=O)[nH]c(SCC(=O)Nc2ncc(S(=O)(=O)c3ccc([N+](=O)[O-])cc3)s2)n1,3,-1,0,-12,-9,i,-9,-1,
CCOC(=O)c1cnn(-c2ccc(NS(=O)(=O)c3ccc(Cl)cc3)cc2)c1C(F)(F)F,-2,-1,-9,-1,/,i,17,-10,
Cc1ccc(-c2nn(-c3ccccc3)cc2/C=C/C(=O)Nc2cccc(S(N)(=O)=O)c2)cc1,-15,-2,-3,5,/,i,17,-6,
COc1cc(NS(=O)(=O)c2ccc(NC(=S)Nc3ccccc3)cc2)nc(OC)n1,4,3,2,4,-14,i,7,6,
CC1(C)Cc2c(c(N3CCOCC3)nc3sc(-c4ccc(C(=O)O)o4)c(N)c23)CO1,12,-7,3,/,-4,i,2,16,
O=C1CCN(S(=O)(=O)c2ccccc2)CCN1CCOCc1ccc(Cl)cc1,7,5,1,-7,-17,i,-12,0,
COc1ccc(C2CC(c3ccccc3)=NN2c2ccccc2)c(C(=O)O)c1OC (stereo unspecified),-11,-1,-4,-7,43,i,-10,2,
Cc1ccc(CN2CCN(CC(=O)N/N=C/c3c[nH]c4ccccc34)CC2)cc1,-15,0,3,4,4,i,-1,3,
CCc1ccc2c(CN(CC)Cc3nc4ccccc4c(=O)[nH]3)cc(=O)oc2c1,-10,-4,5,/,-5,i,-8,-17,
Cc1sc(NC(=O)CSc2nc(O)cc(=O)[nH]2)nc1-c1ccccc1,10,-1,1,-6,/,i,-13,-13,
COC(=O)c1ccc(COC(=O)CNC(=O)c2cccc(OC)c2)o1,/,2,1,/,-11,/,19,/,
Cc1cccc(C)c1NC(=O)CCN1C(=O)C2C3CCC(C3)C2C1=O (stereo unspecified),-3,-4,2,-6,-13,i,-6,-7,
O=C(Nc1ccccc1N1CCCCC1)c1ccc2nccnc2c1,-6,-1,-2,/,-7,i,-18,-2,
Cc1cc(NCCCN(C)C)n2nc(-c3cccs3)cc2n1,1,1,-2,/,-12,i,-4,6,
S=C(NCc1ccco1)N1CCN(Cc2ccco2)CC1,12,2,6,17,-17,i,3,2,
Cc1ccc(S(=O)(=O)n2cc(CO)c3ccccc32)cc1,/,-1,-3,-18,-6,/,/,/,

# (listing goes on)
SMILES,PABP polyA inh,MT1-MMP act inh,MT1-MMP act inh RFP,Env fusion inh,Yeast UUG start,Rce1 inhib,CSC inhib,eIF4H inh,others
O=c1[nH]cnc2ncc(-c3ccc(O)cc3)nc12,/,2,-1,-2,-1,i,-13,/,
CCOC(=O)N1CCN(C(=O)c2ccc(C)c(S(=O)(=O)Nc3ccccc3)c2)CC1,10,0,2,/,-4,i,-1,-6,
Cc1ccc(CN(c2ccc(C(=O)N3CCc4ccccc4C3)cc2)S(C)(=O)=O)cc1,2,-4,-11,21,3,i,-6,-6,
Cc1ccc(NS(=O)(=O)c2ccc(CCC(=O)O)cc2)cc1,5,3,2,/,-13,i,-1,3,
CC(C)n1c(=N)c(C(=O)NCCc2ccccc2)cc2c(=O)n3ccccc3nc21,-8,6,6,/,-6,i,23,-8,
COCCSc1ccccc1C(=O)N1CCN(Cc2ccccc2)CC1,-4,-1,0,4,-7,i,-13,-7,
CCC(C)N1CC23C=CC(O2)C(C(=O)OCc2ccccc2)C3C1=O (stereo unspecified),-6,0,6,/,-14,i,-4,-3,
O=S(=O)(N/N=C\c1ccc2c(c1)OCO2)c1ccccc1,7,-3,3,11,-21,i,-12,-1,
O=C(NCc1ccncc1)/C(=N/O)c1ccccc1,4,3,5,/,8,i,/,-8,
C=CCN=C1SC(C)C(=O)N1S(=O)(=O)c1ccccc1 (stereo unspecified),-8,-8,3,14,6,i,9,0,
COc1cccc(-c2cnc(C(O)c3ccc(CN4CCCC4)cc3)[nH]2)c1 (stereo unspecified),/,2,6,12,-8,/,/,/,
COc1ccc(CNC(=O)C2CC(c3ccccc3C(F)(F)F)=NO2)cc1 (stereo unspecified),13,3,-1,-6,-6,i,-2,0,
Cc1nc(CCNC(=O)CC2C(=O)NCCN2CC(C)C)nc2c1CCC2 (stereo unspecified),15,1,5,-8,1,i,10,13,
C=CCC1c2cccc(C(=O)OC)c2C(=O)N1c1ccccc1 (stereo unspecified),7,0,-3,-406,-5,i,4,-2,
Cc1cccc(NC(=O)CNC(=O)CCNC(=O)c2ccc(C(C)(C)C)cc2)c1C,/,2,-2,/,5,/,-10,/,
CC(=O)N/C(=C/c1ccccc1)C(=O)N1CCCCC1,-13,4,-1,21,7,i,/,-3,
COc1ccc(/C=N/Nc2ccccc2C(=O)O)cc1Cn1cc([N+](=O)[O-])cn1,12,0,7,-5,-16,i,4,-3,
O=C(/C=C/c1ccc2c(c1)OCO2)N1CCN(c2ccccc2F)CC1,0,-3,1,1,/,i,-7,1,
COc1ccc(S(=O)(=O)NCCC(=O)NC2CCCCC2C)cc1[N+](=O)[O-] (stereo unspecified),/,2,1,-10,-8,/,-3,/,
CCC(=O)Nc1ccc(OCC2CCCO2)cc1 (stereo unspecified),9,-3,-1,24,-16,i,-12,12,
COc1ccccc1NC(=O)c1cc(S(=O)(=O)N2CCCC2)cn1C,-5,-5,5,-34,-2,i,-23,-4,
CCOc1ccc(N(CC(=O)NCCC2=CCCCC2)S(=O)(=O)c2ccccc2)cc1,-8,-7,-8,16,-16,i,-11,1,
CCOc1ccc(CNC(=O)CN2C(=O)C(c3ccccc3)Oc3cccnc32)cc1 (stereo unspecified),0,2,3,11,-2,i,-5,14,
COc1ccc(OC)c(-c2cc(C(=O)Nc3ccc(F)cc3F)no2)c1,8,2,6,8,-7,i,18,6,
O=C(Cc1ccccc1[N+](=O)[O-])Nc1ccc2c(c1)OCO2,-7,2,2,-11,-16,i,8,3,
CC(C)(C)n1nnnc1CN(Cc1ccco1)Cc1cc2cc3c(cc2[nH]c1=O)OCO3,54,-3,5,/,2,i,10,49,eIF4H inh retest=2;PABP polyA inh retest=0
CCN(Cc1nc(-c2ccc(C)cc2)no1)C(=O)c1ccco1,-15,5,4,-8,-15,i,-8,-5,
O=[N+]([O-])c1ccc(C[n+]2cc(-c3ccccc3)n3c2CCCCC3)cc1,-5,1,5,1,/,i,-12,5,
OCCC1CN(Cc2cn[nH]c2C2CCCCC2)CCN1C1CCCC1 (stereo unspecified),-9,-3,1,8,-18,i,-3,-2,
CN(Cc1ccccc1)C(NC(=O)c1ccco1)C(Cl)(Cl)Cl (stereo unspecified),-3,4,4,11,/,i,-12,7,
Cc1ccc(OC(C)C(=O)Nc2ccncc2)cc1C (stereo unspecified),7,7,-16,1,-25,i,/,4,
O=C(O)c1cc(Cl)c(Cl)cc1C(=O)Nc1cccc2cccnc12,5,-5,7,23,-22,i,46,74,eIF4H inh retest=2;PABP polyA inh retest=8

# Screening results from PubChem.

# This is a subset; the hit share may differ from the screen's.
